Compound activity: PubChem BioAssay, National Center for Advancing Translational Sciences (NCATS)
hNpr1 antagonist = Natriuretic polypeptide receptor (hNpr1) antagonism - Primary qHTS | HEK293 hNpr1 GloSensor cGMP, ANP-stimulated luminescence | Potency, µM (highest dose often 46.3 µM), without a hit: at the highest dose activity change, negative = inhibition, most hits filed as inhibitors | Atrial natriuretic peptide receptor 1 (Homo sapiens), P16066 | 76,000 compounds, 1.6% hits; active = well fitted inhibition curve with a large enough effect; inconclusive = small, poorly fitted or top-dose-only effect; inactive = no such curve, though single readings can be large or run the other way;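 also: nearly all actives have a fitted effect of over 60% in size; nearly all hits also lower the signal before the agonist is added; a reference antagonist and vehicle were the controls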
Target sequence (P16066 whole entry, looked up): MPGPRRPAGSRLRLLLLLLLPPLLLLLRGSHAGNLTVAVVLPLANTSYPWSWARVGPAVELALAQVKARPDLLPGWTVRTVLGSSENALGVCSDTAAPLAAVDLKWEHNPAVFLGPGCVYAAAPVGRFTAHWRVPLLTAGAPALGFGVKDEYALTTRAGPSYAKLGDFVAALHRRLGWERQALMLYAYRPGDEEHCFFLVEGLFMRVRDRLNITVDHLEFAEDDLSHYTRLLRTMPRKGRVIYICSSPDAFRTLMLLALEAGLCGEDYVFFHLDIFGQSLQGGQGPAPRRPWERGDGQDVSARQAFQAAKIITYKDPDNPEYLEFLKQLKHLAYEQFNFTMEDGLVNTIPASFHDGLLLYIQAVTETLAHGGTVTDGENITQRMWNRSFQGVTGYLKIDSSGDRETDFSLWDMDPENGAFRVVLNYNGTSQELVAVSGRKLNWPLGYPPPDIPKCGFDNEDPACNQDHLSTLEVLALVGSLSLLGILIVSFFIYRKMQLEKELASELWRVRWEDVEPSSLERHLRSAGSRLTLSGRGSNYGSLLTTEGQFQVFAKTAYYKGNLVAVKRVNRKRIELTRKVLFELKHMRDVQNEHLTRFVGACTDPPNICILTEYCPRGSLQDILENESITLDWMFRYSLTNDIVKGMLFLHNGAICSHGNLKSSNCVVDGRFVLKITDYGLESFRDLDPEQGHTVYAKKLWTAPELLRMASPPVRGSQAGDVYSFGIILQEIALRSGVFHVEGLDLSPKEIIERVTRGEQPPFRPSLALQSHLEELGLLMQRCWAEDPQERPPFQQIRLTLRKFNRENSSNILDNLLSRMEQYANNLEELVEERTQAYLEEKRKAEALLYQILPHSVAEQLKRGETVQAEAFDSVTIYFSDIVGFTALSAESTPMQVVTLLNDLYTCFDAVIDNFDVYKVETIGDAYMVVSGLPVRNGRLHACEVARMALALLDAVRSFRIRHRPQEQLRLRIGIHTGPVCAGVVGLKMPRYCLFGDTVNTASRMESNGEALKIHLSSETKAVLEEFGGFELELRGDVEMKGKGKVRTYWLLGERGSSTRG
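Compound pre-incubated 30 min at room temperature on GloSensor-loaded HEK293 cells stably carrying hNpr1 and the pGS-40F cGMP biosensor. Stimulation uses hNppA at 0.1 nM final; luminescence is taken at baseline and 20 min post-agonist.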
Starred values were filed as active, the others as inactive; ? = inconclusive; [ ] = remark or other dose. % is scaled to controls: 0 for no effect and ±100 for the full control effect; potency is read from the fitted curve at half-maximal effect. The list is partial, so the mix of outcomes need not match the whole.

smiles	hNpr1 antagonist
Cc1nc(C2CCCN(C(=O)Cc3ccncc3)C2)cc(N2CCOCC2)n1 (stereo unspecified)	-4%
O=C1CC2(CCN(Cc3ccsc3)CC2)Oc2ccccc21	10%[70.6 µM]
COc1ccc(-c2ccc3nnc(CNC(=O)c4ccccc4F)n3n2)cc1	20%
COc1ccc(-c2ccc3nc(-c4ccc(SC)cc4)oc3c2)c(OC)c1OC	2%
COc1cc2nc(C)n(CC(=O)NC3CCCc4c3[nH]c3ccccc43)c(=O)c2cc1OC (stereo unspecified)	0%
CC(=O)N1CCC2(C1)OC(=O)Nc1ccccc12 (stereo unspecified)	14%[70.6 µM]
c1cc(-c2cc(-c3ccncc3)c3cncn3c2)c2[nH]ncc2c1	-24%[70.6 µM]
Fc1ccc(C2Cn3nnc(-c4nc(-c5cccc(C(F)(F)F)c5)no4)c3CO2)cc1 (stereo unspecified)	5%
CN(C)c1ccc(C(=O)N2CCCC(Cc3noc(-c4ccncc4)n3)C2)cc1 (stereo unspecified)	-6%
COC(=O)CN1C(=O)[C@@H]2C[C@@H](O)CN2C2(CN(C3CCOCC3)C2)C1=O	3%[70.6 µM]
CC(=O)N[C@@H]1CN(Cc2cccc(C#N)c2)C[C@H]1CO	-18%
CCOc1ccccc1CNC(=O)[C@H]1CN(C(C)C)C[C@H]1C(=O)O	8%
COc1ccc(-c2cnc(Nc3cccnc3)c3c2CCO3)cn1	-7%[70.6 µM]
Cc1ccc(NC(=O)N2C[C@@H](Oc3cccnc3)C[C@H]2C(=O)N2CCOCC2)cc1C	7%
Cc1ncc2c(c1CNC(=O)CCc1ccc(=O)[nH]n1)CCNC2	-1%
CCCNC(=O)C[C@@H]1CCN(C(=O)c2ccnc(Cl)c2)C[C@@H]1CC	-3%[70.6 µM]
CO[C@@H]1COCC[C@H]1NC(=O)c1cccnc1N(C)C1CCCCC1	6%
CS(=O)(=O)N1CCC(C2CCN(Cc3ccc4c(c3)CCO4)C2)CC1 (stereo unspecified)	-2%
O=C(N[C@@H]1CNCCC[C@H]1O)c1ccc(OCCN2CCOCC2)cc1	7%[70.6 µM]
O=C(c1cccc(F)c1)N1CCCC(n2cc(-c3nc(-c4ccccc4)no3)nn2)C1 (stereo unspecified)	?
CCCCCC(=O)N[C@@H](Cn1cc(F)c(=O)[nH]c1=O)C(=O)O	9%[70.6 µM]
Cc1cccc(-c2cnc3n[nH]c(-c4ccc5c(c4)OCO5)c3n2)c1	-3%[70.6 µM]
COc1cccc(CN2CCCCCCNC(=O)[C@@H]3C[C@@H](C(=O)NCCc4cnc[nH]4)C[C@@H]32)c1OC	-4%
Cc1cn2nnc(C(=O)N3CCC(C(=O)Nc4ccc(F)c(F)c4)CC3)c2c(=O)[nH]1	5%
Cc1cccc(C(C(=O)N2CCC(CCn3ccnc3C)CC2)N(C)C)c1 (stereo unspecified)	-1%

The closing 2 entries of the section before are carried over, then new ones follow.
smiles	hNpr1 antagonist
Cc1cn2nnc(C(=O)N3CCC(C(=O)Nc4ccc(F)c(F)c4)CC3)c2c(=O)[nH]1	5%
Cc1cccc(C(C(=O)N2CCC(CCn3ccnc3C)CC2)N(C)C)c1 (stereo unspecified)	-1%
COc1cccc(CN2CCC(C(=O)N3CCCCCCNC(=O)CC3)CC2)c1	2%
COc1ccc(CN2C(=O)[C@@H]3C[C@@H](CN3Cc3ccccc3C)Oc3ccccc32)cc1	-30%[70.6 µM]
Fc1ccccc1-c1cc2c(cn1)CN(Cc1cccnc1)CCN2	-9%[70.6 µM]
O=C(c1cc(C2CC2)no1)N1C[C@@H](CN2CCCCC2)[C@@H](CO)C1	-1%
CCc1cc(=O)n(CC(=O)Nc2ccc(F)c(Cl)c2)c(N2CCOCC2)n1	-3%
O=C(Cn1nc2n(c1=O)CCCCC2)NCc1ccc(Cl)cc1	4%
Cn1cc(C2c3nccn3CCCN2C(=O)c2ncccc2F)cn1 (stereo unspecified)	2%
CN(Cc1cccnc1)c1ccc2ncc(Nc3cccc(N[S+](C)(=O)[O-])c3)n2n1	-3%[70.6 µM]
O=C(C1CCC1)N1CCC(c2noc(-c3cnccn3)n2)C1 (stereo unspecified)	5%
CC(C)(O)C#Cc1ccc(CN2CCC(CO)(CCCc3ccccc3)CC2)s1	-26%
O=C(CC1CCCC1)N1CCC2(CC1)CC(N(Cc1ccc(F)cc1)C1CC1)CCO2 (stereo unspecified)	-22%
CC1=C[C@@H](CN2CCC(C(N)=O)CC2)[C@H](C(C)C)C[C@H]1Cc1nnc(-c2cncn2C)o1	1%
COc1ccc(CC(=O)NC2CCN(c3cc(-c4ccc(F)cc4)[nH]n3)C2)cc1 (stereo unspecified)	?
O=C(NCc1ccc2c(c1)OCO2)c1nc(-c2ccc(F)cc2)c2ccccn12	0%
Cc1ccc(-c2noc([C@@H]3C[C@H](NC(=O)CC(C)(C)C)CN3C)n2)cc1	35µM*
CC(C)[C@@H]1CN(C(=O)c2nc3ccccc3[nH]c2=O)C[C@H]1NS(C)(=O)=O	6%
COCCOC(=O)N1CCC(Oc2cnc3c(ccn3-c3cncnc3)c2)CC1	7%[70.6 µM]
Cc1ccc(CN2CCn3c(nnc3[C@@H]3C[C@@H](O)CN3C)C2)s1	5%
C=CCCC(CN1CCCOCC1)Oc1ccc(Cn2ccnc2)cn1 (stereo unspecified)	13%
C=CCNC(=O)CCc1c(CC)nn(-c2ccccc2)c1Oc1ccccc1OC	-10%
O=S(=O)(Cc1noc([C@@H]2C[C@@H](O)CN2Cc2cc3ccccc3o2)n1)c1ccc(F)cc1	-1%
O=C(C[C@@H]1CCNC[C@@H]1Cc1cc(CSc2ccccc2)on1)Nc1ccccc1	-15%[70.6 µM]
O=C1CCCN1CCCN1C(=O)[C@H]2CN(Cc3ccccc3OC(F)(F)F)C[C@H]2C1=O	-2%
COc1ccc(CCNc2ncnc3c2CN(c2ccc(OC)cc2)C(=O)CN3C)cc1	-2%
O=C(c1cccc(C(F)(F)F)c1)N1CCOCC2(CN(Cc3cc(F)cc(F)c3)C2)C1	3%[70.6 µM]
CCNC(=O)N1CC[C@@H](CC(=O)O)[C@@H](CC2=NCCc3ccc(C)cc32)C1	2%[70.6 µM]
O=C(NC[C@H]1O[C@@H](CO)[C@@H](O)[C@H]1N1CCCC1)c1ccccc1	3%[70.6 µM]
Cc1cc(S(=O)(=O)N[C@H]2[C@H]3CCO[C@H]3[C@@H]2N2CCCCC2)n(C)n1	0%
Cc1ccccc1NC(=O)N1CCC(CCNC(=O)CCCc2ccccc2)CC1	5%
O=C(N[C@@H]1CNCC[C@@H]1CO)c1cccnc1	-9%
CCO[C@H]1CN(C(=O)c2ccccc2OC(F)(F)C(F)F)C[C@@H]1O	-1%
COCCN1CCN(C[C@@H]2C=C(C)[C@H](Cc3nnc(COc4ccc(F)cc4)o3)C[C@H]2C(C)C)CC1	-8%
COc1cc2c(cc1OC)C(CNC(=O)c1ccccc1C)N(C(=O)Nc1cccc(C)c1)CC2 (stereo unspecified)	1%
COC[C@@H]1CN(C(=O)c2ccc(C)nc2)C[C@H]1c1nc(C2CC2)no1	-1%
Cc1ccc(NC(=O)c2cnc(-c3ccccc3)nc2-c2ccncc2)c(Br)c1	-24%
COc1ccc(-c2[nH]ncc2CN2CCCCCNC(=O)[C@@H]3CCC[C@@H]32)cc1	0%
Cc1ccc(C(=O)N2C[C@@H](CO)[C@H](c3ccccn3)C2)nc1	5%
COC(=O)c1ccc(CNC(C)c2cnc(-c3ccncc3)nc2C)cc1 (stereo unspecified)	4%
Cc1ccc(CC(=O)NCc2nnc3cc(-c4nc(C)no4)ccn23)cc1	12%
O=C(NC1CCCN(c2cc(-c3ccc(F)cc3)[nH]n2)C1)C1CCCCC1 (stereo unspecified)	-8%
COc1ccc(OCc2nc(C)c(CCO)c(=O)n2CC(=O)N(C)c2cccc(C)c2)cc1	-9%
Cc1noc(-c2ccco2)c1C(=O)NCCC(c1ccccc1)c1ccccc1	-14%
CCCc1cc(C(=O)N2CC(=O)N(CC(C)C)CC(OCc3ccccc3F)C2)n(C)n1 (stereo unspecified)	-2%
O=C(Nc1ccc(Cl)cc1)N1CCC(c2nn(-c3ccccc3)c(=O)[nH]2)CC1	0%
COc1ccc2nc(CO[C@H]3CN(Cc4cn(C)c5ccccc45)C[C@H]3F)[nH]c2c1	-16%[70.6 µM]
COc1cc(=O)n2c(c1C(=O)Nc1cc(F)ccc1F)CCCC2	-6%
O=C(NC1CC1)c1ccccc1OCC1CCCN(Cc2ccc(Br)o2)C1 (stereo unspecified)	-14%
O=C(c1ccccc1)N1CCC2(CC1)COc1ccccc1CN2	-1%[70.6 µM]
Cc1cccc(OCC(=O)N2CCCC(c3noc(COc4ccccc4)n3)C2)c1 (stereo unspecified)	-15%
Cc1ccccc1NC(=O)C1=NO[C@@H]2CN(c3ccccn3)C[C@H]12	-1%[70.6 µM]

Five structures out of the list, arranged by length of the SMILES, rising:
smiles	hNpr1 antagonist
Cc1noc(-c2ccco2)c1C(=O)NCCC(c1ccccc1)c1ccccc1	-14%
CCO[C@H]1CN(C(=O)c2ccccc2OC(F)(F)C(F)F)C[C@@H]1O	-1%
COc1ccc2nc(CO[C@H]3CN(Cc4cn(C)c5ccccc45)C[C@H]3F)[nH]c2c1	-16%[70.6 µM]
Cc1cc(S(=O)(=O)N[C@H]2[C@H]3CCO[C@H]3[C@@H]2N2CCCCC2)n(C)n1	0%
COCCN1CCN(C[C@@H]2C=C(C)[C@H](Cc3nnc(COc4ccc(F)cc4)o3)C[C@H]2C(C)C)CC1	-8%

Other structures follow.
canonical_smiles,hNpr1 antagonist
CCCOc1ccc(CNC(=O)[C@H]2CCC[C@H]2NC(=O)c2ccc(OC)cc2)cc1,-1%
COc1ccc(C(=O)N2CCC3(CC2)NC(=O)N(Cc2ccc(Cl)cc2)C3=O)cc1,?
CCc1nc(-c2c3n(c(=O)n(CC(=O)Nc4cc(C)ccc4OC)c2=O)CCCC3)no1,-2%
Cc1ccc(NC(=O)CC2CCCN(c3cn[nH]c(=O)c3)C2)c(C)c1 (stereo unspecified),5%
O=C(Nc1n[nH]c(Cc2ccccc2)n1)N1CCN(C(=O)c2ccco2)CC1,4%
CC(C)c1nc2c(c(-c3ccc(O)cc3)n1)CN(C(=O)c1cccc(Cl)c1)CC2,4%
CC(=O)Oc1c(-c2ccc(NC(=O)c3ccc4c(c3)OCO4)cc2)c(C2CC2)nn1-c1cccc(F)c1,-1%
Cn1cc(CN[C@H]2C[C@H]3C(=O)NC[C@@H](CCC(=O)N4CCCCC4)N3C2)c2ccccc21,1%
CCOC(=O)C1CCN(C(=O)CC(c2ccc3c(c2)OCO3)c2c[nH]c3ccccc23)CC1 (stereo unspecified),0%
Cc1noc([C@H]2CCN(Cc3ccccc3F)C[C@H]2NC(=O)C2CC2)n1,4%
COc1ccccc1CNC(=O)C1CC(=O)N(c2n[nH]c3cccc(F)c23)C1 (stereo unspecified),3%
Cc1cccc(C(=O)N2CCC3(CC2)OCC(C(=O)N2CCCC2)N3C(=O)c2cccc(C)c2)c1 (stereo unspecified),2%
Cc1cccc(NC(=O)N2CCC(Oc3ncccc3C(=O)N3CCOCC3)C2)c1C (stereo unspecified),?
CN1CC2(CCN(C(=O)CCc3c[nH]c4ccccc34)CC2)CC1C(=O)N1CCOCC1 (stereo unspecified),-5%
CNC(=O)[C@@H]1C[C@H](Oc2ccccc2)CN1C(=O)c1ccc(OC)nc1,6%
N#Cc1cccc(-c2ncc3c(n2)OCCN(Cc2ccc(F)cc2F)C3=O)c1,-26%[70.6 µM]
O=C(Cn1nc2n(c1=O)CCCC2)NCc1ccc2c(c1)OCO2,0%
COc1cccc(NC(=O)N[C@H]2C[C@@H](C(=O)N[C@@H](CCCNC(=O)C=C(C)C)C(N)=O)N(C(=O)C=C(C)C)C2)c1,2%
CNC(=O)[C@@H](C1CC1)N1CCC[C@H]1C(=O)NCc1ccccn1,-2%[70.6 µM]
Cc1ccc(OCc2cc(C(=O)N(C)Cc3ccccn3)no2)cn1,-26%
N#Cc1ccc(C(=O)N2CCC(n3cc(-c4nc(-c5ccccc5)no4)nn3)C2)cc1 (stereo unspecified),?
O=C(Nc1ccc([C@@H](O)[C@H]2COCC(=O)N2Cc2ccc(C(F)(F)F)cc2)cc1)C1CCCCC1,6%
CC(C)c1cnc(N2CCC(COc3ccc4c(cnn4CCC(=O)O)c3)CC2)nc1,1%[70.6 µM]
COc1ccc(CN2Cc3[nH]cnc3C[C@H]2c2nc(-c3ccc(C)cc3)no2)cc1,-22%[70.6 µM]
COCCC1(C(=O)O)CCCN(CCCn2ccnc2C)C1 (stereo unspecified),4%
COCC1CN(C(=O)NC2CCCC2)CC12CCNCC2 (stereo unspecified),0%
Cc1cccc(N2CCN(C(=O)c3ccc4c(c3)N(C(=O)c3ccccc3)CC4)CC2)c1C,-23%
Cn1c([C@H]2CCN(C(=O)NC3CCCCC3)C2)nc2ccccc21,1%[70.6 µM]
COCCNC(=O)N1CCc2nn(Cc3ccccc3)c(=O)n2CC1,-5%
COc1cccc(CN2CCC(N3C(=O)C(OC)C34CCOCC4)CC2)n1 (stereo unspecified),2%
Cc1cccc(C(=O)N2CCC3(CC2)CC(CC(=O)NC2CC2)CCO3)c1 (stereo unspecified),1%
C[C@@H](NC(=O)C1CCCC1)c1c(-c2ccc(Cl)cc2)noc1C(=O)O,1%[70.6 µM]
O=C(NCc1nnc2ccc(-c3ccc(Cl)cc3)nn12)c1cccc(Br)c1,15%
